# Bioassay records: PubChem, National Center for Advancing Translational Sciences (NCATS)
# AmpC nodet inh = Promiscuous and Specific Inhibitors of AmpC Beta-Lactamase (assay without detergent); P00811; AmpC nitrocefin hydrolysis, absorbance 480 nm, no detergent; potencies from a single point are estimates; Potency, µM (series often up to 28.7 µM), for the others: at the highest dose activity change, negative = inhibition; 71,000 compounds, 1.8% hits; active = falling curve, for most hits resting on a single point; inconclusive = weak or doubtful change; inactive = flat or rising curve; note: % of control where 0% means no effect; about half of the hits show no inhibition at the top dose; a quarter of the inactives give rising signals
# Target sequence (P00811 whole entry, looked up): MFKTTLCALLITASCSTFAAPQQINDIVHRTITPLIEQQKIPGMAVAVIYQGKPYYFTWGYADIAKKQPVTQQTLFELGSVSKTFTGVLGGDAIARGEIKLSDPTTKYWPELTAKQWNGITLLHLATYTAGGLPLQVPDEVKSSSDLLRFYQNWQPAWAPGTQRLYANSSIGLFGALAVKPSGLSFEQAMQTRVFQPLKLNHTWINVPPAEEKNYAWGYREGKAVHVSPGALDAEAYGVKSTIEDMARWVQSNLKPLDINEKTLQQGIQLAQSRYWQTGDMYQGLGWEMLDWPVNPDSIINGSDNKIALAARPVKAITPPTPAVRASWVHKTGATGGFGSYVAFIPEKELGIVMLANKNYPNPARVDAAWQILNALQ
#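 AmpC in 20 mM phosphate buffer pH 7.0 was preincubated 15 min at room temperature with compounds. Nitrocefin (800 uM stock) was then added and hydrolysis followed at 480 nm every 20 s for 4 min.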
# The depositor's hits bear a star; [ ] = remark or other dose. Potency is the fitted concentration of half-maximal effect.
SMILES,AmpC nodet inh
O=C1CSC(c2cccnc2)N1C1CCCCC1 (stereo not drawn),-10%
CCS(=O)(=O)Nc1ccc(-c2nnc(SCC(=O)c3ccc(NC(C)=O)c(OC)c3)o2)cc1,33%
CCn1c(SCC(=O)NCc2ccccc2)nc2ccccc2c1=O,-5%
CC(=O)Nc1ccc(S(=O)(=O)N2CCCc3ccccc32)cc1,4%
Cc1cc(C)n(C(=O)c2cc3sccc3[nH]2)n1,-4%
COc1cc2cc3c(N)c(C(=O)NCc4ccco4)sc3nc2cc1OC,124%
CCN(CC)CCOC(=O)c1c(C)oc2ccc(OC)cc12,15%
Cc1ccc(C2C(C(=O)c3sc(C)nc3C)=C(O)C(=O)N2CCN(C)C)o1 (stereo not drawn),3%
O=C(Cc1ccccc1)Nc1nonc1NC(=O)c1ccccc1,-10%
CCOC(=O)CSc1nc2c(c(=O)n1-c1ccc(OC)cc1)SCC2,9%
Cc1noc(C)c1-c1nccc(N2CCN(C)CC2)n1,9%
Cc1c(/C=N/n2cnnc2)c2ccccc2n1CCOc1ccccc1,165%
COc1ccc(-c2ccc(=O)n(Cc3cc(=O)n4ccccc4n3)n2)cc1,54%
O=C(c1cc2c(s1)CCCC2)N1CCC2(CC1)OCCO2,-14%
Cc1ccc(-c2noc(COc3ccccc3C)n2)cc1,-4%
CCOc1ccccc1NS(=O)(=O)c1cccs1,14%
O=C(O)Cc1csc2ccccc12,0%
CCOC(=O)C1=C(C)NC(=O)NC1c1ccc2c(c1)OCCO2 (stereo not drawn),-14%
CCC(C)Nc1nc(SC(C(C)=O)C(C)=O)nc(N(C)C)n1 (stereo not drawn),15%
Cn1cc(S(=O)(=O)CC(=O)Nc2ccc3c(c2)OCCO3)c2ccccc21,-10%
COC(=O)c1ccc(O)c(Sc2cc(C(=O)OC)ccc2O)c1,-22%
O=C(CSc1nc(Nc2ccccc2)nc(N2CCOCC2)n1)Nc1ccc2c(c1)OCCO2,21%
CCn1c(=O)n(CC)c2cc(S(=O)(=O)Nc3ccccc3C)c(C)cc21,35%
CCOc1ccc(-n2c(SC(C)C)nc3c(c2=O)SCC3)cc1,19%
COc1ccc(C(=O)Oc2c(CN3CCOCC3)cc(Cl)c3cccnc23)cc1OC,10%
O=C(CSc1ccc(-c2nc3ccccc3[nH]2)cn1)N1CCN(C(=O)c2ccco2)CC1,43%
CC(=O)NCCNc1ncncc1-c1ccc(N(C)C)cc1,3%
CCOC(=O)c1nnn(-c2nn3nnnc3c3ccccc23)c1C,0%
CN(CCNC(=O)C1(O)c2ccccc2NC(=O)N1c1ccccc1)Cc1ccccc1 (stereo not drawn),-10%
c1coc(CNc2ncnc3c2oc2ccccc23)c1,2%
COC(=O)c1c(-c2ccccc2)csc1NC(=O)c1ccco1,-8%
CSc1nncn1/N=C/c1cc(Cl)ccc1F,-5%
O=C(Nc1ccc2sccc2c1)c1ccc(Cl)s1,-12%
COCCNC(=O)c1cc2sc3ccccc3c2s1,25%
COc1ccc(-c2noc(CSc3nc4ccccc4c(=O)n3-c3ccccc3)n2)cc1OC,73%
Cc1ccnc(NC(=O)CCC(=O)N(CC(=O)NCC2CCCO2)Cc2ccc(F)cc2)c1 (stereo not drawn),62%
CCn1cc(S(=O)(=O)CC(=O)NC2CCCCC2)c2ccccc21,18%
c1cncc(-c2nn3c(Cn4nnc5ccccc54)nnc3s2)c1,-4%
CC(C)c1nccn1S(=O)(=O)c1cc(Cl)ccc1Cl,-7%
O=C(CN1CCN(c2ccc(F)cc2)CC1)Nc1ccc(-n2cnnn2)cc1,-18%
C/C(=N\O)C1/C(=N/O)CC2C1C2(C)C (stereo not drawn),-8%
CCCOc1ccc(NC(N)=O)cc1OCCC,-3%
CCSCCNC(=O)c1cncc(Br)c1,8%
c1ccc(N2CCN(Cc3ccsc3)CC2)nc1,-9%
COCCNC(=O)c1cc(-c2ccc(Cl)c(Cl)c2)on1,-7%
CCOC(=O)C1=C(C)N(c2ccccc2)C(=O)C1CC(=O)O (stereo not drawn),-9%
CC(=O)CCc1oc2ccc(NC(C)=O)cc2c1-c1ccc(C)o1,38%
O=C(O)CCC(NS(=O)(=O)c1ccc(N2CCCC2=O)cc1)C(=O)O (stereo not drawn),-1%
O=S(=O)(NCCCO)c1ccc2c(c1)Cc1cc(S(=O)(=O)NCCCO)ccc1-2,9%
COc1ccc(S(=O)(=O)Nc2cc(Cl)ccc2OC)cc1,17%
# The results go on:
SMILES,AmpC nodet inh
CC(NS(=O)(=O)c1ccc(CCC(=O)N2CCN(C)CC2)cc1)c1ccccc1 (stereo not drawn),29%
O=C(c1ccc(=O)n(Cc2ccccc2)n1)N1CCN(C/C=C/c2ccccc2)CC1,141%
CC1CCCN(S(=O)(=O)c2ccc(NC(=O)c3cccc(-n4cnnn4)c3)cc2)C1 (stereo not drawn),-2%
Cc1cc(C)cc(N2CCN(C(=O)N3CCOCC3)CC2)c1,44%
CCOC(=O)N1CCN(C(=O)C2CC(c3ccccc3OC)=NO2)CC1 (stereo not drawn),24%
COc1ccc(N2C(=NC(C)=O)SC3CS(=O)(=O)CC32)cc1OC (stereo not drawn),-9%
Oc1ccccc1-c1cc(C(F)(F)C(F)F)[nH]n1,3%
OCCN1CN=C(Nc2nc3ccccc3o2)NC1,-5%
CCN=C(NCC)SC1CC(=O)N(c2ccccc2)C1=O (stereo not drawn),11%
COCC(=O)Nc1nc2ccc(S(C)(=O)=O)cc2s1,-7%
Cc1cccc(CNc2cc(-c3ccccc3CN(C)C)ncn2)c1,21%
C[N+](C)(C)/N=C\c1ccc(O)c(O)c1,6%[5.75 µM]
CCOc1ccc2nc(Nc3nc4c(c(=O)[nH]3)CCC4)nc(C)c2c1,-5%
O=C(CN1CCN(c2ccccc2F)CC1)c1ccc2cc[nH]c2c1,29%
CC(C)CN(CC(C)C)S(=O)(=O)N1CCC(C(=O)NCCN2CCOCC2)CC1,74%
N#CCc1nc(CSc2nc3ccccc3o2)cs1,-4%
Cc1ccccc1-c1ccc2ncnc(N(C)Cc3ccco3)c2c1,81%
C/C=C/Cn1c(N(C)Cc2ccccc2)nc2c1c(=O)[nH]c(=O)n2C,42%
COc1ccc2[nH]cc(C(O)CN3CCN(c4ccccc4)CC3)c2c1 (stereo not drawn),10%
O=C1N2c3ccccc3CCc3cccc(c32)C1(O)C(F)(F)F (stereo not drawn),-12%
COc1ccc(CCNc2ncnc3nc[nH]c23)cc1OC,11%
CCC1(CC)C(=O)C(C)(C)C(=O)OC1c1cccs1 (stereo not drawn),-3%
CCn1c(SCC(=O)NCCOc2ccccc2)nc2ccccc2c1=O,35%
N#C/C(=C(/O)CN1C(=O)c2ccccc2C1=O)c1nc2ccccc2[nH]1,10%
C=CCn1c(O)c(C(C)=NCc2cc(OC)cc(OC)c2)c(=O)[nH]c1=O,15%
O=C1CCCN1CCCN1C(=O)N[C@@H](Cc2ccccc2)C1=O,-12%
COc1ccc(N2CCN(C(CNS(=O)(=O)c3cc(F)ccc3F)c3cccnc3)CC2)cc1 (stereo not drawn),72%
Cc1cc(C)n2cc(CSc3nnnn3-c3ccccc3C)nc2n1,31%
Cn1c(CNc2ccc(Cl)cc2)nnc1SCc1ccccc1,5%
O=C(c1ccccc1Cl)N1CCN(c2ccccn2)CC1,10%

# 18 entries from above, bar-delimited:
SMILES | AmpC nodet inh
COCC(=O)Nc1nc2ccc(S(C)(=O)=O)cc2s1 | -7%
Cc1cccc(CNc2cc(-c3ccccc3CN(C)C)ncn2)c1 | 21%
C[N+](C)(C)/N=C\c1ccc(O)c(O)c1 | 6%[5.75 µM]
CCOc1ccc2nc(Nc3nc4c(c(=O)[nH]3)CCC4)nc(C)c2c1 | -5%
O=C(CN1CCN(c2ccccc2F)CC1)c1ccc2cc[nH]c2c1 | 29%
CC(C)CN(CC(C)C)S(=O)(=O)N1CCC(C(=O)NCCN2CCOCC2)CC1 | 74%
N#CCc1nc(CSc2nc3ccccc3o2)cs1 | -4%
Cc1ccccc1-c1ccc2ncnc(N(C)Cc3ccco3)c2c1 | 81%
C/C=C/Cn1c(N(C)Cc2ccccc2)nc2c1c(=O)[nH]c(=O)n2C | 42%
COc1ccc2[nH]cc(C(O)CN3CCN(c4ccccc4)CC3)c2c1 (stereo not drawn) | 10%
O=C1N2c3ccccc3CCc3cccc(c32)C1(O)C(F)(F)F (stereo not drawn) | -12%
COc1ccc(CCNc2ncnc3nc[nH]c23)cc1OC | 11%
CCC1(CC)C(=O)C(C)(C)C(=O)OC1c1cccs1 (stereo not drawn) | -3%
CCn1c(SCC(=O)NCCOc2ccccc2)nc2ccccc2c1=O | 35%
N#C/C(=C(/O)CN1C(=O)c2ccccc2C1=O)c1nc2ccccc2[nH]1 | 10%
C=CCn1c(O)c(C(C)=NCc2cc(OC)cc(OC)c2)c(=O)[nH]c1=O | 15%
O=C1CCCN1CCCN1C(=O)N[C@@H](Cc2ccccc2)C1=O | -12%
COc1ccc(N2CCN(C(CNS(=O)(=O)c3cc(F)ccc3F)c3cccnc3)CC2)cc1 (stereo not drawn) | 72%

# Other results.
SMILES,AmpC nodet inh
Cc1ccc(N2C(=O)C(Cl)=C(NCCO)C2=O)c(C)c1,0%
O=C(Nc1cccnc1)c1coc(=O)c2ccccc12,-3%
C/C=C1\C[C@H](C)[C@@](O)(CO)C(=O)OCC2=CCN3CC[C@@H](OC1=O)[C@@H]23,-6%[12.8 µM]
CN(Cc1ccco1)c1nc(-c2cccc(C#N)c2)nc2ccccc12,13%
COc1ccc2c(c1)cc1n2CCN=C1N,-10%
C[C@@H](C(=O)NCc1ccccn1)[C@@H]1C[C@@]1(C)[C@@H](NC(=O)OCc1ccccc1)c1ccccc1,113%
CCCCc1nc(SCC(=O)Nc2cc(C)on2)n[nH]1,-4%
O=C(c1ccccc1)c1ccc2nc(N3CCCCC3)c3nncn3c2c1,32%
O=C(NCCCN1CCOCC1)C1CC(=O)N(C2CCCCC2)C1 (stereo not drawn),-4%
CC1CCCC(C)N1CCNC(=O)C1CCN(S(=O)(=O)N2CCCCC2)CC1 (stereo not drawn),4%
CC1CCN(C(=O)CSc2nc(N)c3c4c(sc3n2)CN(C)CC4)CC1,4%
Cc1nc2ccccc2cc1C[N+]12CN3CN(CN(C3)C1)C2,0%[5.75 µM]
Cc1nc2cnc(N(C)C)nc2n(Cc2cccs2)c1=O,3%
CC(C)c1nc2oc3c(NCC4CCCO4)ncnc3c2c2c1COC(C)(C)C2 (stereo not drawn),136%
Cn1cccc1Cc1nnc(SCC(=O)N2CCc3ccccc32)n1-c1ccc(F)cc1,132%
COC(=O)c1ccc(CN2CCN(Cc3ccccc3)CC2)cc1,10%
c1ccc(-c2nc3ccccc3s2)nc1,4%
CN1CC[C@@]2(CCCN(C(=O)Oc3ccccc3)C2)C1,-2%
COc1ccc(OC)c(C(=O)CC2OC(=O)c3ccccc32)c1 (stereo not drawn),1%
O=C(NCCc1c[nH]c2ccccc12)[C@H]1C[C@@H]1[C@H](NP(=O)(c1ccccc1)c1ccccc1)c1ccccc1,30%
COc1cc(CSc2nnnn2-c2ccc(C)cc2)cc(OC)c1OC,37%
Cc1cc(C)c2nc(N3CCC(C(=O)N4CCCC4)CC3)sc2c1,127%
CC1=C(C(=O)NCCCOC(C)C)C2(CCC(C)CC2)OC1=O (stereo not drawn),28%
CCC(=O)N1CCc2cc(S(=O)(=O)NC(Cc3ccccc3)C(=O)NC3CCCC3)ccc21 (stereo not drawn),18%
COc1ccc(C(=O)N2CCC3(CCCN(Cc4ccccc4OC)C3)CC2)cc1,16%
Clc1cccc(OCCn2cncn2)c1Cl,9%
CCN(CC)CCCn1c(=S)[nH]c2ccccc2c1=O,-14%
CCC(C)NC(=O)c1ccccc1NC(=O)CN1C(=O)c2ccccc2S1(=O)=O (stereo not drawn),13%
O=C(COc1ccccc1Cl)N1CCN(c2ccc(F)cc2)CC1,44%
O=C(CN1CCN(S(=O)(=O)c2ccc(F)cc2)CC1)Nc1cc(C(F)(F)F)ccc1Cl,21%
COc1ccccc1N1CCN(CC(=O)Nc2ccc(CN3CCCCC3)cc2)CC1,21%
Cc1ccc(N2CC(C(=O)NCCC(C)C)CC2=O)cc1 (stereo not drawn),9%
COc1ccc(CN2CC(C(=O)NCCN3CCOCC3)CC2=O)cc1 (stereo not drawn),4%
O=S(=O)(c1cccs1)N1CCN(Cc2nc3ccccc3s2)CC1,16%
CCCc1[nH]nc2c1C(c1ccccc1OCC)C(C#N)=C(N)O2 (stereo not drawn),1%
CN(C)C(=O)c1ccc(-c2ccc3ncnc(N(C)C)c3c2)cc1,-1%
CCc1nc(SCC(=O)Nc2ccnc3ccccc23)n[nH]1,-13%
CCOC(=O)c1c(C)c(C(=O)Nc2ccc3c(c2)OCCO3)c(C)n1CC,41%
CCNc1ncc2nc(C)c(=O)n(Cc3ccc(F)cc3)c2n1,0%
Cc1nc(N2CCN(c3ncccn3)CC2)c2oc3ccccc3c2n1,56%
Cc1cc(C)n2nc(SCC(=O)N(C(C)C)C(C)C)nc2n1,4%
O=C(CSc1ccc2c(c1)OCCO2)NC(=O)NC1CCCC1,-21%
Cc1cc(C)c(C#N)c(SCS(=O)Cc2ccc(Cl)cc2)n1 (stereo not drawn),41%
O=C(OCC(=O)N1CCCC1)c1cncc(Br)c1,4%
S=P(c1ccc(N2CCOCC2)cc1N1CCOCC1)(N1CCOCC1)N1CCOCC1,77%
FC(F)Oc1ccc(-c2csc(Cc3nnc4n3CCCCC4)n2)cc1,95%
N#Cc1ccc(OCC(=O)NCCc2ccc(S(N)(=O)=O)cc2)cc1,6%
COc1ccccc1C(=O)N1CCN(c2cccc(Cl)c2)CC1,73%
COC(=O)C1(CCSC)NC(c2ccc(O)cc2)C2C(=O)N(c3ccc4c(c3)OCCO4)C(=O)C21 (stereo not drawn),17%
O=C(c1cccc(S(=O)(=O)N2CCOCC2)c1)N1CCCc2ccccc21,22%
COc1ccc2nc(SCC(=O)Nc3ccc(S(=O)(=O)Nc4onc(C)c4C)cc3)[nH]c2c1,-17%
Cc1ccc(Nc2nc(N)nc(CN3CCN(Cc4ccc5c(c4)OCO5)CC3)n2)cc1,84%

# These rows are one share of the data; the hit share may differ from the screen's.
